Autofluor counter: counter-screen for toxin protease inhibitors: compound fluorescence | AID 624483 | 3.1% of 360,000 active | compound autofluorescence counterscreen, microsphere flow cytometry; stronger effect = higher value | fluorescence intensity (concentration not given with the values);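 active = at least 3 SD above the mean of all compounds, about 16000 in these data; inconclusive = too few beads counted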;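 also: 100 nL of 1 mM stock went into each well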
PrP UTR inh: inhibition of PrP 5' UTR reporter expression; cell-based PrP 5' UTR mRNA reporter, plate reader; inhibition, % (no concentration beside the values); 0.35% of 340,000 active;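 active = every replicate at 50% or more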;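 also: 0 = median of the neutral control wells; tested in H4 reporter cells; numbers are from one replicate; inactives centre near -14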
BJeLR viability: kills HRASV12-expressing BJeLR cells | inhibition, % (no concentration beside the values) | BJeLR (HRASV12) viability, CellTiter-Glo ATP luminescence, 48 h; reference of the scale not given here | 0.17% of 300,000 active | AID 1554;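 active = replicate mean above 50%; inconclusive = above 50% but judged a plate artefact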;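 also: 50 nL library stock added to about 25 µL; numbers are from one replicate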
ugtP null kill: compounds lethal to S. aureus RN4220 ugtP deletion mutant; OD600 growth, 16 h; some inactives read as strong as hits; growth inhibition, % (test concentration not listed); 0.54% of 330,000 active;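 active = z-score under -3 and OD600 up to 0.15 on both plates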;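 also: plate controls were untreated wells for no effect and antibiotic for full effect; wells of about 80 µL received 100 nL stock; the first replicate is given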
Mtb hypoxia rep: reduces hypoxia-regulated biosensor signal in M. tuberculosis | M. tuberculosis hypoxia-regulated fluorescent reporter, fluorescence | fluorescence inhibition, % (concentration not given with the values) | 0.1% of 300,000 active | AID 1159583;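 active = 35 to 45% if threefold the growth effect, above 45% if 1.5-fold the growth effect; inactive = the rest, general growth blockers included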;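 also: wells of about 50 µL received 100 nL stock; 0% = vehicle wells and 100% = reference inhibitor wells; whole bacteria with a GFP reporter of the hypoxia response; strong numbers were not always called active; many hits fall short of the cut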
Sa RN4220 lethal: S. aureus RN4220 growth inhibition; OD600, 16 h; 0.33% of 330,000 active; inhibition, % (test concentration not listed);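 active = z-score of -3 or lower and OD600 up to 0.18 on both plates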;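 also: plate controls were untreated cells for no effect and reference antibiotic for full effect; stock transfer was 100 nL into about 80 µL; one replicate is shown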
Mtb hypoxia rep growth: further read-out of Mtb hypoxia rep, marked with its call; growth inhibition, %; measured here: M. tuberculosis growth (absorbance);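 0% = vehicle and 100% = reference antibiotic; read after six days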
* hit, by the source's call; ? = inconclusive; . = not tested or not shown.

SMILES	Autofluor counter	PrP UTR inh	BJeLR viability	ugtP null kill	Mtb hypoxia rep	Mtb hypoxia rep growth	Sa RN4220 lethal
CCCCNCCCOc1cc(Cl)ccc1Cl	2930	-10	-2	10	10	8	12
O=Cc1c(-c2ccc(F)cc2)nc2ccccn12	4319	-18	-11	12	24	18	1.2
O=C(Nc1ccc(C2CCCCC2)cc1)C1CCN(c2ncccn2)CC1	?	3	3	-4	6	7	4.1
CN(C)C(=O)Cn1cnc2c(cnn2-c2ccc(F)cc2)c1=O	4599	-13	4	2	-6	0	2.4
COc1ccc([C@@H]2[C@@H]3C(=O)N(C(C)(C)C)C(=O)[C@@H]3[C@]3(CC(C)C)C(=O)N(c4ccccc4)C(=O)N23)cc1	2896	-14	21	.	.	.	.
Cc1cnc(NC(=O)Cc2ccccc2Cl)s1	3446	-8	-9	0	-6	-7	-4.3
O=C(COC(=O)c1ccc2c(c1)C(=O)N(Cc1ccncc1)C2=O)Nc1cccc2ccccc12	8320	-17	-1	2	-2	3	-1.7
CC(NC(=O)c1cccnc1)C(c1cccs1)N1CCN(c2ccccc2F)CC1 (configuration not stated)	3582	-6	6	8	5	10	0.5
CCNC(=S)NN=C1CCCCc2ccccc21	.	.	.	12	3	9	1.9
CC1(C)CC(=O)C(C=Nc2ccc(O)c(N=CC3=C(O)CC(C)(C)CC3=O)c2)=C(O)C1	2404	7	.	-1	1	-2	3.2
O=C(CN1C(=O)c2ccc([N+](=O)[O-])cc2C1=O)Nc1cc(S(=O)(=O)N2CCOCC2)ccc1Cl	?	-1	-5	.	.	.	.
OCCN1CCN(CC(O)COc2ccc(-c3ccccc3)cc2)CC1 (configuration not stated)	3872	-41	-1	2	.	.	-2.5
O=C(CN1C(=O)COc2ccc(Cl)cc21)NC1CC1	3803	3	9	2	-12	-9	1.3
COc1ccc(N2CC(C(=O)Nc3nc4ccc(S(C)(=O)=O)cc4s3)CC2=O)cc1 (configuration not stated)	3787	-22	0	6	0	5	4.2
O=C(COc1cccc2cccnc12)NN=C1SCC(=O)N1CCc1ccccc1	.	.	.	2	6	-1	-2.8
CCOC(=O)C1=C(C)Nc2ncnn2C1c1cccnc1 (configuration not stated)	4292	-21	0	6	17	15	2.8
COc1ccc2cc(CN(CC3CCCO3)C(=O)Nc3ccccc3)c(=O)[nH]c2c1 (configuration not stated)	3879	-41	.	14	14	-4	4.0
O=C(O)CN1C(=O)C(=O)N(Cc2ccc(Cl)c(Cl)c2)C1=O	3774	-13	-2	4	-1	-4	2.4
COCC(=O)Nc1ccc2c(c1)OCC(=O)N2Cc1ccccc1F	3759	-60	-3	0	-6	-7	2.2
CC1(C)C=C(c2ccc(C(=O)O)s2)CC(C)(C)N1	10654	-11	5	1	7	2	2.1
C=CCn1c(SCC(=O)N2CC(=O)Nc3ccccc32)nc2scc(-c3cccs3)c2c1=O	3953	-1	-3	-1	0	5	-5.2
O=C(CSCc1ccc(Cl)cc1Cl)Nc1ccc(O)cc1C(=O)O	3869	-26	2	6	14	13	5.4
CC1(C)CC(=O)N(c2ccc(C#N)cc2)C(=O)C1	3359	-13	4	4	20	8	-2.4
Cc1cccc(CN(CC(=O)N/N=C/c2ccco2)S(=O)(=O)c2ccc(Cl)cc2)c1	6024	-20	4	.	.	.	.
COc1cc(C=NNC(=O)c2cccc(C)c2)ccc1OCC(=O)Nc1ccccc1	.	.	.	2	8	15	5.8
Cc1cccc(Nc2ncnc3ccc(Br)cc23)c1	1922	7	1	-22	13	6	9.0
O=C(Cn1cc([N+](=O)[O-])cn1)N1CCc2ccccc2C1	3509	-2	10	2	-2	5	6.3
CSc1sc(-c2ccnc(=S)[nH]2)c(-c2ccccc2)c1C#N	4068	.	7	14	4	2	4.0
COCCN1C(=O)c2cc(C(=O)Nc3cccc(F)c3)ccc2C1Nc1cccc(F)c1 (configuration not stated)	5211	-26	-7	4	-5	1	-7.1
Cn1ncc(Cl)c1C(=O)NN=Cc1ccccn1	.	.	.	2	-4	8	5.1
O=C1/C(=C/c2cccs2)SC(=S)N1CC(=O)N1CCCCC1CCO (configuration not stated)	.	-8	-8	1	14	1	6.2
O=C(CN1CCN(Cc2ccc3c(c2)OCO3)CC1)Nc1cc(S(=O)(=O)N2CCCC2)ccc1Cl	4335	-13	-1	6	5	16	-0.3

Compound profiles (already shown):
Cc1cccc(Nc2ncnc3ccc(Br)cc23)c1 in the list: Autofluor counter: 1922; PrP UTR inh: 7; BJeLR viability: 1; ugtP null kill: -22; Mtb hypoxia rep: 13; Mtb hypoxia rep growth: 6; Sa RN4220 lethal: 9.0
O=C(CN1CCN(Cc2ccc3c(c2)OCO3)CC1)Nc1cc(S(=O)(=O)N2CCCC2)ccc1Cl in the list: Autofluor counter: 4335; PrP UTR inh: -13; BJeLR viability: -1; ugtP null kill: 6; Mtb hypoxia rep: 5; Mtb hypoxia rep growth: 16; Sa RN4220 lethal: -0.3

The list goes on:
SMILES	Autofluor counter	PrP UTR inh	BJeLR viability	ugtP null kill	Mtb hypoxia rep	Mtb hypoxia rep growth	Sa RN4220 lethal
COc1ccc(CCNC(=O)c2sc3cc(C)ccc3c2Cl)cc1	3296	-6	-11	3	-1	6	0.4
Cc1cc(-c2nc3c4c5c(sc4[nH]c(=O)n3n2)CCC5)c(C)o1	3963	-36	10	-9	6	5	10
C/C(=N\NC(N)=O)c1cccc(Cl)c1	2795	9	3	.	.	.	.
Cc1ccc([N+](=O)[O-])cc1NC(=S)NC(=O)CC(C)(C)C	19100*	4	2	46	15	17	-0.8
O=S(=O)(c1cc(Cl)ccc1Cl)N1CCN2CCCC2C1 (configuration not stated)	4658	-8	6	9	2	2	2.9
O=c1[nH]c2ccccc2nc1NCCN1CCOCC1	2704	-15	7	-1	.	.	2.8
O=C(NC1CC1)C1=CC(c2ccc3c(c2)OCO3)CC(OCCCCO)O1 (configuration not stated)	.	.	.	11	1	-2	4.2
COc1cc(F)c(C2=CC(=O)CC(C)(C)C2)cc1F	3475	-19	.	5	10	4	12

Going on with the list:
structure,Autofluor counter,PrP UTR inh,BJeLR viability,ugtP null kill,Mtb hypoxia rep,Mtb hypoxia rep growth,Sa RN4220 lethal
Cn1c(C2=C(O)CN(Cc3ccccc3)C2=N)[n+](C)c2ccccc21,4344,-9,.,3,7,1,1.3
CCC(=NCc1ccccc1)C1=C(O)C(C(=O)OC)C(C)(C)CC1=O (configuration not stated),4759,-17,12,0,.,.,-7.3
COc1ccc(C2C(C#N)=C(N)Oc3n[nH]c(C)c32)cc1Cn1nnc2ccccc21 (configuration not stated),?,-19,.,6,20,1,5.0
N/C(=N\OC(=O)c1cccc(Cn2cc(C(F)(F)F)ccc2=O)c1)c1ccccc1,3351,-23,-11,-2,13,6,4.9
O=C(Nc1cccc(S(=O)(=O)N2CCCCCC2)c1)C1=COCCO1,?,-19,9,-3,8,3,0.9
Cc1cccc(NC(=S)NC(=O)c2ccc(-c3ccccc3)cc2)n1,5972,-67,-8,-5,2,-2,5.9
Cc1c(Cl)cccc1NC(=O)CNC(=O)c1ccccc1F,2525,-13,-6,-1,6,9,4.9
COc1ccc(NC(=O)CSc2nccn2C)cc1S(N)(=O)=O,4993,12,12,3,1,3,3.1
O=C(NC12CC3CC(CC(C3)C1)C2)c1cc(F)c(F)c(F)c1F,3527,-13,4,0,7,7,4.9
COc1ccc(-c2cc(C(F)(F)F)nc(N)n2)cc1,4211,-19,-10,-8,0,-1,10
CCn1c(C(=O)NCCCc2ccccc2)cc2sccc21,2390,4,3,20,9,11,6.4
COc1ccc(CNC(=O)Cn2ccc(NC(=O)OCc3ccccc3)nc2=O)cc1,4246,-20,.,2,4,8,3.0
Cc1nnc(NC(=O)C(c2ccccc2)c2ccccc2)s1,3477,-22,-13,-5,11,2,2.0
COc1ccc(/C=C2\Oc3cc(OCC(=O)N4CCC(C(=O)O)CC4)ccc3C2=O)c(OC)c1OC,5605,-4,5,7,.,.,1.4
CCOC(=O)c1nn(-c2ccc(C)c(C)c2)c(=O)c(C#N)c1C,3057,-35,-21,1,-3,11,1.1
COc1ccc(C(=O)N2CCCC(c3ccccc3)C2)cc1 (configuration not stated),2378,5,.,15,2,4,4.8
O=C(COC(=O)Cc1n[nH]c(=O)c2ccccc12)Nc1c(Cl)cccc1C(F)(F)F,4700,3,7,11,-1,-5,4.6
CSc1ccc(CNc2ccccn2)cc1,4699,-51,0,4,.,.,2.0
CCc1ccc(NC(=O)C2CC=CCC2C(=O)O)cc1 (configuration not stated),4504,2,-10,-9,-3,8,0.6
COc1ccc(C(=O)CCc2ccc(OC)c(OC)c2)cc1,5633,-20,-4,1,23,11,5.6
CSc1nnc(C)c(=O)n1COC(=O)/C=C/c1ccc2c(c1)OCO2,3773,9,-10,3,7,1,4.2
COC(=O)c1sccc1NC(=O)CSc1ccccc1NS(=O)(=O)c1ccc(F)cc1,4167,-5,-6,-11,-2,2,14
CCCCNC(=O)C(C)N(CCN(C)C)C(=O)CCCN1C(=O)NC(c2ccc([N+](=O)[O-])cc2)C(C(=O)OCc2ccccc2)=C1C (configuration not stated),3829,40,.,-4,-9,2,-0.6
CC(=O)c1cc2c(cc1N/C(=N/S(=O)(=O)c1ccc(C)cc1)c1ccc(Cl)cc1)OCO2,2401,-6,-2,2,11,0,4.0
O=C(CSc1nc2c(sc3ccccc32)c(=O)n1CCc1ccccc1)NCc1ccco1,?,-29,4,5,-3,0,5.2
CN(C)S(=O)(=O)c1cccc(NC(=O)COC(=O)[C@H](Cc2ccccc2)NC(=O)c2ccco2)c1,3921,-18,.,7,2,0,3.1
Cc1ccc2nc(NC(=O)C3CCN(C(=O)c4ccc(F)cc4)CC3)sc2c1,6048,-19,2,-1,1,-1,4.2
Cc1cccc(C(=O)CC(=O)c2cc(Cl)ccc2O)c1,3761,-13,-24,100*,11,25,100*
COc1ccc(CCNC(=O)C(=O)NCC2OCCN2C(=O)c2ccc(Cl)cc2)cc1 (configuration not stated),4619,-15,5,18,6,6,4.9
Cc1c(Cl)cccc1NC(=O)[C@@]1(CC(=O)O)CC(/C=C/c2ccccc2)=NO1,4223,6,0,-2,4,18,1.3
CNC(=S)N1CCN(c2nc3ccccc3s2)CC1,5298,-65,4,9,2,9,3.4
CCOc1ccc(Br)cc1CN(CC)CC,.,-6,-5,-1,3,14,1.7
Cc1ccc(CS(=O)(=O)Cc2ccc(C(=O)NC3CC3)o2)cc1,5164,-16,-9,4,5,4,1.9
CC(C)(C)C(=O)N1CCN(c2ccc([N+](=O)[O-])c(NCc3cccnc3)c2)CC1,5105,-16,1,-2,8,2,-2.6
O=C(O)c1ccccc1-c1nc(-c2ccccc2)c(-c2ccccc2)[nH]1,2077,-63,4,-2,12,6,6.8

Four successive records out of the list so far:
structure,Autofluor counter,PrP UTR inh,BJeLR viability,ugtP null kill,Mtb hypoxia rep,Mtb hypoxia rep growth,Sa RN4220 lethal
COc1ccc(CCNC(=O)C(=O)NCC2OCCN2C(=O)c2ccc(Cl)cc2)cc1 (configuration not stated),4619,-15,5,18,6,6,4.9
Cc1c(Cl)cccc1NC(=O)[C@@]1(CC(=O)O)CC(/C=C/c2ccccc2)=NO1,4223,6,0,-2,4,18,1.3
CNC(=S)N1CCN(c2nc3ccccc3s2)CC1,5298,-65,4,9,2,9,3.4
CCOc1ccc(Br)cc1CN(CC)CC,.,-6,-5,-1,3,14,1.7

Screening results from PubChem.
